# Bioassay records as filed in PubChem.
# VDR inhibitor = inhibitors of human vitamin D receptor; P11473; VDR-SRC2-3 peptide fluorescence polarization, 2 h; Potency, µM, inactives show max response, negative = inhibition, usual class: inhibitors; 400,000 tested, 0.93% active; AID 504847; active means well fitted inhibition curve with a large enough effect; inconclusive means small, poorly fitted or top-dose-only effect, or another doubt; inactive means no such curve, though single readings can be large or run the other way; further: series mostly up to about 120 µM
# Target sequence (P11473 whole entry, looked up): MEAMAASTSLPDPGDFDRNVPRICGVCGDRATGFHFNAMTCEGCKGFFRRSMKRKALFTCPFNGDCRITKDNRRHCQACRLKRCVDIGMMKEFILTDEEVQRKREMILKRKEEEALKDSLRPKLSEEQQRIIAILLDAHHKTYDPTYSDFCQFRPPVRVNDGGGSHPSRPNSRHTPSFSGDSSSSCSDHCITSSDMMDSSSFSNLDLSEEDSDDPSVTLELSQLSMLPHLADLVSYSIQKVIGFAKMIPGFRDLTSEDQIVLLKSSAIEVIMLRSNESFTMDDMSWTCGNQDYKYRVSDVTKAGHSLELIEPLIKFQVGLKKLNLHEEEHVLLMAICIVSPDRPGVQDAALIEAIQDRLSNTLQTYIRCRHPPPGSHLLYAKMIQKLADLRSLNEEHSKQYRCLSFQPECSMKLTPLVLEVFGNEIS
#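 Reagent solutions, kept cold and dark, are dispensed first; compounds are then pinned in at 23 nl, plates briefly spun, and incubated 2 h at ambient temperature. Inhibition of VDR–SRC2-3 peptide binding is read by fluorescence polarization.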
# An asterisk follows results filed as active; u = inconclusive; & = joins results of further samples; [ ] = another dose, or the depositor's remark. On the % scale 0 is the no-effect control and ±100 the full control effect; potency means the concentration at half of the fitted maximal effect.
SMILES,VDR inhibitor
O=C1CC(N2CCN(Cc3ccccc3)CC2)C(=O)N1 (stereo not drawn),-6%
O=C(Nc1ccc(-c2cnco2)cc1)c1ccc(Cl)cc1,-3%
O=C(Nc1ccccc1N1CCOCC1)c1cc(-c2ccco2)nc2ccccc12,17%
O=C(COC(=O)c1cc[n+]([O-])cc1)Nc1ccc(F)c([N+](=O)[O-])c1,-6%
CCOC(=O)C1CCN(C(=O)c2cc3c(s2)-c2ccccc2OC3)CC1,2%
O=C(NCc1ccco1)c1nc2ccccc2s1,-8%
CC1(C(=O)N2CC3(CC(c4ccccc4)=NO3)C[C@H]2C(=O)NCC(N)=O)CC1 (stereo partly drawn),5%
Cn1nc(C(F)(F)F)c(-c2ccccc2)c1NC(=O)c1ccco1,26%
CCn1nnc(NC(=O)c2cccc(-c3cc4ccccc4oc3=O)c2)n1,4%
CC(=O)C1CCC2C3CCC4=CC(=O)CC[C@]4(C)[C@@]3(F)C(O)C[C@]12C (stereo partly drawn),-4%
CC1(C)CC(=O)C(C=NCCc2ccc(O)cc2)=C(O)C1,6%
CN(C)CCn1c(=O)n(-c2cccc(Cl)c2)c(=O)c2c3c(sc21)CCCCC3,0%
O=C(CSc1nnc(CNC(=O)c2c(F)cccc2F)o1)NCc1ccco1,-2%
COCCCn1c(SCC(=O)c2ccccc2)nc2ccccc2c1=O,-6%
Cc1ccnc(NS(=O)(=O)c2cccc([N+](=O)[O-])c2)c1,-4%
O=S(=O)(NC1CC(NS(=O)(=O)OCC(Cl)(Cl)Cl)C2CCCCC12)OCC(Cl)(Cl)Cl (stereo not drawn),-19%
Nc1nonc1-n1nnc(C(=O)N/N=C/c2ccoc2)c1-c1ccccc1,-8%
CC(NC(=O)COC(=O)C1=NN(c2ccccc2)C(=O)CC1)c1ccccc1 (stereo not drawn),10%
CC1CC(C)CN(S(=O)(=O)c2ccc(C(C)(C)C)cc2)C1 (stereo not drawn),8%
CS(=O)(=O)c1cccc(C(=O)OCC(=O)NC(=O)Nc2ccccc2F)c1,6%
COc1cccc(C(=O)NCCS(=O)(=O)N2CCCCC2)c1,-14%
Cc1c([N+](=O)[O-])cnc(Sc2ccccc2)c1[N+](=O)[O-],u
COc1c(C)cc(Br)cc1C(=O)Nc1ccc(N2CCN(S(C)(=O)=O)CC2)cc1,-3%
O=C(OCC(=O)N1CCCC1)c1ccccc1O,13%
COC(=O)Cn1c(C)c(C(C)=O)c(C(C)=O)c1C,8%
COc1ccc([N+](=O)[O-])cc1N(CC(=O)N1CCN(Cc2ccccc2)CC1)S(C)(=O)=O,50µM*
Cc1cccc(NS(=O)(=O)c2cc3c4c(c2)C(C)C(=O)N4CCC3)c1 (stereo not drawn),3%
CCN(CC)C(=O)COc1cc(C)c(Cl)c(C)c1,-13%
COc1ccc(-c2nnc3n2N=C(C)CS3)cc1,1%
COc1ccc(C(CCN)Cc2ccccc2)cc1 (stereo not drawn),1%
O=[N+]([O-])c1ccc(OCCn2cnc3ccccc32)cc1,-12%
N#Cc1cccc(-c2cn(S(=O)(=O)c3ccc(Cl)cc3)nc2N)c1,6%
ON=C1c2cc(OCCN3CCCCC3)ccc2-c2ccc(OCCN3CCCCC3)cc21,u
COc1ccc(-c2cn(CCN)c(-c3ccncc3)n2)cc1,-17%
C=C(C)c1cccc(C(C)(C)NC(=O)N2CC(C)OC(C)C2)c1 (stereo not drawn),12%
O=C(CCS(=O)(=O)c1ccc(Cl)cc1)Nc1ccc(N2CCOCC2)cc1,6%
CCc1ccccc1NC(=O)CSc1n[nH]c(-c2cccnc2)n1,10%
COc1cccc(/C=C/C(=O)OCC(=O)N2c3ccccc3CC2C)c1OC (stereo not drawn),11%
O=C(NC1CCN(Cc2ccccc2)CC1)C(NS(=O)(=O)c1cccc2nsnc12)c1ccccc1 (stereo not drawn),-4%
O=C(CCCO)NC1Cc2ccccc2C1,-4%
O=C(Nc1ccc(N2CCN(C(=O)c3ccco3)CC2)c(Cl)c1)c1c(F)c(F)c(F)c(F)c1F,-16%
O=C1Cc2ccccc2N1c1c(Cl)cccc1Cl,-15%
Cc1c(NC(=O)c2ccc(Br)o2)cccc1-c1nc2ccccc2o1,-1%
COc1ccc(NS(=O)(=O)c2ccc3oc(SC4CCOC4=O)nc3c2)cc1 (stereo not drawn),-12%
COc1ccc(OC)c2[nH]c(=O)c(CCNC(=O)Cc3cccs3)cc12,12%

# Reformatted: 16 of the compounds above.
SMILES	VDR inhibitor
Cc1cccc(NS(=O)(=O)c2cc3c4c(c2)C(C)C(=O)N4CCC3)c1 (stereo not drawn)	3%
CCN(CC)C(=O)COc1cc(C)c(Cl)c(C)c1	-13%
COc1ccc(-c2nnc3n2N=C(C)CS3)cc1	1%
COc1ccc(C(CCN)Cc2ccccc2)cc1 (stereo not drawn)	1%
O=[N+]([O-])c1ccc(OCCn2cnc3ccccc32)cc1	-12%
N#Cc1cccc(-c2cn(S(=O)(=O)c3ccc(Cl)cc3)nc2N)c1	6%
ON=C1c2cc(OCCN3CCCCC3)ccc2-c2ccc(OCCN3CCCCC3)cc21	u
COc1ccc(-c2cn(CCN)c(-c3ccncc3)n2)cc1	-17%
C=C(C)c1cccc(C(C)(C)NC(=O)N2CC(C)OC(C)C2)c1 (stereo not drawn)	12%
O=C(CCS(=O)(=O)c1ccc(Cl)cc1)Nc1ccc(N2CCOCC2)cc1	6%
CCc1ccccc1NC(=O)CSc1n[nH]c(-c2cccnc2)n1	10%
COc1cccc(/C=C/C(=O)OCC(=O)N2c3ccccc3CC2C)c1OC (stereo not drawn)	11%
O=C(NC1CCN(Cc2ccccc2)CC1)C(NS(=O)(=O)c1cccc2nsnc12)c1ccccc1 (stereo not drawn)	-4%
O=C(CCCO)NC1Cc2ccccc2C1	-4%
O=C(Nc1ccc(N2CCN(C(=O)c3ccco3)CC2)c(Cl)c1)c1c(F)c(F)c(F)c(F)c1F	-16%
O=C1Cc2ccccc2N1c1c(Cl)cccc1Cl	-15%

# Going on with the list.
SMILES,VDR inhibitor
CC(=O)N1CCc2cc(Br)cc(S(=O)(=O)NCC3CCCO3)c21 (stereo not drawn),-13%
Cc1c(Cl)cccc1NC(=O)c1oc2ccc(S(=O)(=O)N3CCC4(CC3)OCCO4)cc2c1C,6%
CSCC[C@H](NC(=O)Cc1c(C)c2c(cc(C)c3c(C)c(C)oc32)oc1=O)C(=O)O,11%
CCOc1ccc(C(=O)Nc2nc(C)cc(C)n2)cc1[N+](=O)[O-],1%
C[C@H](CO)N1C[C@H](C)[C@@H](CN(C)C)Oc2c(NC(=O)C3CC3)cccc2C1=O,4%
CCOC(=O)C1CCN(C(=O)C(C)N(c2ccc(Oc3ccccc3)cc2)S(C)(=O)=O)CC1 (stereo not drawn),-15%
COc1ccc(Cl)c(OC)c1C(=O)NC(=O)Nc1c(F)cc(F)cc1F,5%
COc1ccc(OC)c(C2C(C(=O)c3ccccc3)=C(C)Nc3nc4ccccc4n32)c1 (stereo not drawn),4%
O=C(Nc1ccc2nccnc2c1)Nc1ccccc1Cl,u
CCOC(=O)C1CCN(c2nc(-c3ccc(Br)cc3)nc3ccccc23)CC1,0%&15%
Cn1c(SCC(=O)NCCc2ccc(S(N)(=O)=O)cc2)nc2ccccc2c1=O,-9%
CC(C)C(=O)Nc1ccc(C(=O)N2CCCCCC2)cc1,15%
CCOC(=O)c1ccc(Nc2nc(C(=O)OCC)nc3ccccc23)cc1,22%&19%
O=C(Cc1ccccc1)NCC(=O)N1CCCCC1,8%
Cc1ccc(C)c(N2CCN(C(=O)c3cc4ccccn4n3)CC2)c1,-14%

# Rewritten with tabs: 2 of the compounds above.
compound	VDR inhibitor
O=C(Cc1ccccc1)NCC(=O)N1CCCCC1	8%
Cc1ccc(C)c(N2CCN(C(=O)c3cc4ccccn4n3)CC2)c1	-14%

# The listing continues.
SMILES,VDR inhibitor
C(=N\c1nc2ccccc2n1CCN1CCCCC1)/c1cccs1,-2%
O=c1cc(C(F)F)oc2c1ccc1ccccc12,2%
CCOC(=O)c1[nH]c(C)c(C(=O)N2CCc3ccccc32)c1C,-19%
CN(C)c1ccc(C=Nc2cnn(C)c2C(N)=O)cc1,3%
O=C(NCc1ccccc1)C(=O)Nc1nc(-c2ccccc2)cs1,-1%
Cc1ccc(NS(=O)(=O)c2c(C)ccc3nsnc23)c([N+](=O)[O-])c1,10%
O=C1NCC(Nc2ccccc2)C(=O)N1 (stereo not drawn),1%
Cc1ccc(C)c(NC(=O)CCC(=O)N/N=C/c2cccnc2)c1,-6%
O=C(Nc1cccc(F)c1)/C(=C\c1ccco1)NC(=O)c1cccs1,-6%
CCOC(=O)c1sc2ccccc2c1S(=O)(=O)Nc1ccc(C(C)=O)cc1,-4%
O=C(Nc1cc(S(=O)(=O)N2CCOCC2)ccc1N1CCCCC1)c1ccccc1,-12%
CCN(CC)S(=O)(=O)c1ccc(Oc2ccccc2)cc1,7%
CC(=O)Nc1ccc(Oc2ccc(NC(C)=O)c(NC(C)=O)c2)cc1,-24%
COc1ccc(NC(=O)c2oc3ccccc3c2NC(=O)C2CCCO2)cc1OC (stereo not drawn),0%
Cc1ccc(CNC(=O)c2ccc(-c3nc(CS(=O)(=O)c4ccc(C)cc4)c(C)o3)cc2)cc1,2%
C/C(=N\N=C(N)N)c1ccc(C)c(C)c1,-4%
Cc1c(NC(=O)CN2CCN(c3ccc([N+](=O)[O-])cc3)CC2)c(=O)n(-c2ccccc2)n1C,u
CN1CCN(CCCNC(=O)Nc2cccc3ccccc23)CC1,0%
Cc1ccc(S(=O)(=O)N2CCCCC2)cc1C(=O)OC1CCCCC1=O (stereo not drawn),3%
CCOC(=O)C1C(=O)NC(c2ccccc2)=NC1c1ccccc1 (stereo not drawn),31%[activator]
O=C(NCC1(c2ccccc2)CCCC1)c1ccco1,34%[activator]
CCO[C@H]1OC(C(=O)NCc2ccccc2)=C[C@@H](c2coc3ccccc3c2=O)[C@@H]1CCCO,10%
CCCCn1c(SCc2ccccc2C)nc2ccsc2c1=O,7%
CC1CN(c2ccc([N+](=O)[O-])c(NCCOc3ccccc3)c2)CCN1 (stereo not drawn),12%
COc1ccc(O)c(C(=O)c2cnc3nc4ccccc4n3c2)c1,-3%
COC(=O)C(Cc1c[nH]c2ccccc12)NC(=O)COc1ccc(Cl)cc1Cl (stereo not drawn),-9%
CN(C)c1nc2ccc(OCCN3CCCCC3)cc2s1,7%
CCSc1nc(-c2ccccc2F)nc2c1Cc1c(CO)cnc(C)c1O2,-6%
CC(C)(C)c1ccc(COC(=O)Nc2ccc(F)cc2)cc1,-25%
CCOC(=O)CNC(=O)N1CCCC(C(=O)c2ccccc2SC)C1 (stereo not drawn),-1%
CCC(CC)c1nnc(NC(=O)C2CC(=O)N(c3ccc4c(c3)OCCO4)C2)s1 (stereo not drawn),25%
COC(=O)c1cccc(C(=O)Nc2ccc(C)cc2Br)n1,-20%
CCn1c(C(O)c2cc(OC)c(OC)c(OC)c2)nc2ccccc21 (stereo not drawn),19%
Cc1cc(C)n2ncc(C(=O)Nc3cccc(O)c3)c2n1,14%
Cc1ccc(N(CC(=O)N2CCN(c3cccc(C)c3C)CC2)S(=O)(=O)c2c(C)nn(C)c2C)cc1,8%
COc1cc(NC(=O)N2CCc3c(sc4c3CCCC4)C2c2ccccc2)cc(OC)c1OC (stereo not drawn),-1%
CCOC(=O)C1CCCN(C(=O)COC(=O)c2ccc(C#N)cc2)C1 (stereo not drawn),12%
CCOC(=O)C(C)Oc1ccc(OCc2ccccc2)cc1 (stereo not drawn),-20%
Cc1ccc2c([N+](=O)[O-])c(C)ccc2n1,-1%
CCCC(=O)Nc1c(-c2ccccc2Cl)c(=O)c2ccccc2n1C,-3%
Cc1ccc(OC(=O)CCC(=O)Nc2ccc(C)c(C)c2)cc1,3%
C/C(=N\NC(=O)c1c(-c2ccccc2Cl)noc1C)c1cccc(NC(=O)C(C)C)c1,2%
C=CCNC(=O)/C(C#N)=C\c1cc(Cl)c(OCC)c(OC)c1,u
COC(=O)c1ccc(OCC(O)CN2CCN(C(=O)c3ccco3)CC2)c(OC)c1 (stereo not drawn),-17%
O=C(COc1ccccc1Cl)NCCNC(=O)c1ccco1,4%
CCOC(=O)c1cc(CC)sc1NC(=O)COC,8%
COC(=O)NNC(=O)/C=C/c1ccccc1,2%
COc1ccc(-c2cc(C(=O)O)c3sc(N4CCCCC4)nc3n2)cc1OC,-20%
CN(C)S(=O)(=O)c1ccc(C(=O)NCCc2ccco2)cc1,-21%
N#CC1=C(N)N2C(=C(C#N)C1c1cccc(Br)c1)Nc1ccccc12 (stereo not drawn),10%
O=C(NCCCc1ccccc1)c1cc([N+](=O)[O-])ccc1Cl,8%
Cc1ccc(OCC(=O)Nc2ccccc2-c2ccccc2NC(=O)COc2ccc(C)cc2)cc1,-7%
COc1ccc(NC(=O)c2ccc[n+]([O-])c2)cc1,-7%
O=C1NC(=S)N(C(=O)c2ccc(F)cc2)/C1=C/c1cccnc1,3%
O=S(=O)(c1ccccc1)n1nc(-c2ccc(Cl)cc2)nc1NCc1ccccc1,5%
COc1ccc(-c2nc3sc(CCNC(=O)c4ccccc4C)c(C)n3n2)cc1,5%
Cn1c(N)c(C(=O)COC(=O)C(Cc2ccccc2)NC(=O)c2ccccc2)c(=O)n(C)c1=O (stereo not drawn),-7%
CCc1ccc(CN2CCc3nc(N4CCN(CC)CC4)ncc3C2)cc1,8%
O=C(c1cc2c(=O)n3ccccc3nc2s1)N1CCN(Cc2ccccc2)CC1,-10%
Cc1cc(N2CCOCC2)n2cc(-c3ccc(F)cc3)nc2n1,-7%
# (continued)
SMILES,VDR inhibitor
CCOc1cc(C(C(=O)NCC2CCCO2)N(C(=O)Cn2nnc3ccccc32)c2ccccc2C(C)=O)ccc1O (stereo not drawn),-2%
O=C(c1cccs1)N1CCCc2cc(NS(=O)(=O)c3ccc(F)cc3)ccc21,6%
Cc1ccc(C(=O)N/C(=C\c2cccc([N+](=O)[O-])c2)C(=O)OCN2C(=O)c3ccccc3C2=O)cc1,-9%
COC(=O)C(C)N=Cc1ccccc1 (stereo not drawn),-11%
Cc1ccccc1OCCC(=O)N1CCN(S(=O)(=O)c2ccccc2F)CC1,30%[activator]
COc1ccc(C)cc1NC(=O)CN1CCN(c2ccccn2)CC1,u

# Not all compounds are listed (hit frequency here may not be typical).
